Vif TR-FRET – HIV-1 Vif–A3G interaction blockers – biochemical, TR-FRET, GST-Vif 1-94, biotin-A3G peptide, dose response retest, primary screen (AID 1117319). TR-FRET GST-Vif / biotin-A3G peptide binding; higher % means a stronger effect; test concentration not given here; strong numbers were not always called active. actives 0.57% (n = 260,000). one-dose inhibition, %; IC50 in µM for titrated hits;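 active means above the screen mean plus three standard deviations and confirmed in dose response; inconclusive means results disagree or hit not tested in dose response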;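 further: Vif residues 1-94 fused to GST binding biotinylated APOBEC3G peptide 110-148; 0% = full assay without inhibitor and 100% = GST in place of GST-Vif; retest series ran down from 100 µM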
HNF4A DNA FP – change in binding of human HNF4 alpha to DNA; HNF4a-FITC DNA binding, fluorescence polarization, 1 h; activity change, % at 10 µM; P41235; actives 0.3% (n = 360,000); in the data active means activity change above about 30%, passing the limit was not always enough;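 further: controls were the assay level and a saturating level of protein; the project sought stronger binding though the title names inhibitors; some compounds called inactive have numbers as strong as hits; positive values seem to mean higher polarization but the record does not say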
ALR H2O2 inh – blocks human ALR sulfhydryl oxidase activity; P55789; purified ALR, DTT oxidation, H2O2 HRP-luminol luminescence; inhibition, % (test concentration not listed); actives 3.8% (n = 290,000);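 active means mean and each replicate at 75% or more; inconclusive means only one of the two met; inactive means neither met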;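 further: stock transfer was 7.5 nL into about 7.5 µL; 0% = neutral wells and 100% = wells with inactivated enzyme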
Target sequence (P55789 whole entry, looked up): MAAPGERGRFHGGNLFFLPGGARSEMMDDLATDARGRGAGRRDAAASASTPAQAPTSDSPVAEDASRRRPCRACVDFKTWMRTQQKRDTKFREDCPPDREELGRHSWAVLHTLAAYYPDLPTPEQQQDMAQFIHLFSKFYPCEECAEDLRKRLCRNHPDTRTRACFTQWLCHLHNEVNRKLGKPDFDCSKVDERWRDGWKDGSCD
E coli growth – E. coli growth inhibition. OD600 absorbance (concentration not given with the values). Escherichia coli growth, OD600, 23 h; stronger effect = lower value. actives 0.21% (n = 330,000);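 active means OD600 absorbance below the run mean of sample wells minus 3.6 SD, in any replicate, cut at about 0.56 in these data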;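 further: stock transfer was 300 nL into about 60 µL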
rRNA inh HTS – inhibits bacterial ribosomal RNA function over humanized ribosomes | AID 720706 | E. coli WT GFP vs humanized-ribosome RFP mutants, fluorescence, 24 h; stronger effect = lower value; DMSO median 0, no signal -100 | GFP signal change (wild-type ribosome), % (no concentration beside the values) | actives 1.6% (n = 350,000);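 active means significant combined selectivity score with lowered wild-type GFP, culture density cut under 30%, mutant RFP and density less affected; inactive means any of these conditions unmet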; further: one replicate is shown; some compounds called inactive have numbers as strong as hits
MLL AF4-AF9 inh – blocks AF4 peptide binding to human AF9. P42568. AlphaScreen, biotin-AF4 peptide binding to FLAG-AF9. inhibition, % at 10 µM. actives 0.47% (n = 350,000);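 active means every replicate reaching a set inhibition limit, whatever the replicate mean, cut at about 25% in these data; inconclusive means mean inhibition reaches that limit but some replicates miss it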;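 further: 0% = plate neutral control median and 100% = total signal loss; the record names both 10 and 1 µM as test concentration; the first replicate is given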
Target sequence (P42568 whole entry, looked up): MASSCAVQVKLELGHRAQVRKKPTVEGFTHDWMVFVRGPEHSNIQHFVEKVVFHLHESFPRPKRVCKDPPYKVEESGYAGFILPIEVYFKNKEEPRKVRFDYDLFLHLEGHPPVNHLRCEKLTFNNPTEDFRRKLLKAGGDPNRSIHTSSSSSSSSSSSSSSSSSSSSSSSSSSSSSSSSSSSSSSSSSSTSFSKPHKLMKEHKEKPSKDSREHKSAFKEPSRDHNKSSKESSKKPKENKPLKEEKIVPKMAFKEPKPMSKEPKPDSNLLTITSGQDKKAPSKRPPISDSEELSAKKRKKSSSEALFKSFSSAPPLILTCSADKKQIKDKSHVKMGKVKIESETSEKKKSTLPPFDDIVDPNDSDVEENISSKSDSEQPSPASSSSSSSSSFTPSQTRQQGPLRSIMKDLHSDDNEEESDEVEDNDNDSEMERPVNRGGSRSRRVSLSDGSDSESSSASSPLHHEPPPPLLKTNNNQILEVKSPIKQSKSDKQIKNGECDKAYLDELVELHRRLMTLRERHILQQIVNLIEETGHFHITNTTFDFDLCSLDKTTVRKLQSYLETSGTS
FGF22 binding – shifts melting point of recombinant human FGF22 | Q9HCT0 | calls only at 9.99 µM | recombinant FGF22 thermal shift, SYPRO orange fluorescence; percent of sucrose octasulfate shift, DMSO zero | actives 1.5% (n = 340,000);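 active means melting point raised past a set limit in the mean and every replicate; inconclusive means no clear call; three in four hits are not shown here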
Target sequence (Q9HCT0 whole entry, looked up): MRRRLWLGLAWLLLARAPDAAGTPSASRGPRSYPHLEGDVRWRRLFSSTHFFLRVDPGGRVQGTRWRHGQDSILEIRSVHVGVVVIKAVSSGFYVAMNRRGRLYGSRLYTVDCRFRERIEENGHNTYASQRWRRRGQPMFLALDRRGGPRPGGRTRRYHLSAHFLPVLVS
rRNA inh HTS OD600 – recorded beside rRNA inh HTS, whose call it bears; OD600 change, %; measured here: OD600 growth;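 optical density of the mix in the first replicate; 0 = DMSO median and -100 = no signal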
rRNA inh HTS RFP – further read-out of rRNA inh HTS, marked with its call; RFP signal change, %; measured here: RFP humanized mutant strains;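 first replicate; 0 = DMSO median and -100 = no signal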
The depositor's hits bear a star; i = inactive; ? = inconclusive; . = no result given. These rows are one share of the data; count on the stated rates, not on these rows.

SMILES	Vif TR-FRET	HNF4A DNA FP	ALR H2O2 inh	E coli growth	rRNA inh HTS	rRNA inh HTS OD600	rRNA inh HTS RFP	MLL AF4-AF9 inh	FGF22 binding
CCOC(=O)CN1C(=O)/C(=C/c2ccccc2Br)Oc2ccccc21	-2.2%	0.9	-3.7	0.705	7.2	13.0	2.0	-1.5	i
OCC1(CCc2ccccc2)CCCN(CCCC(F)(F)F)C1 (centres undefined)	.	-0.7	-4.0	0.682	8.0	7.6	-0.2	1.3	i
Cc1ccc(OCC(=O)N2CCN(c3nnc(-c4ccc(C)cc4)c4ccccc34)CC2)cc1	-6.7%	0.2	-14.8	0.69	.	.	.	.	.
Cc1ccccc1NC(=O)c1cccc(N2C(=O)C3C4CC(C(Br)C4Br)C3C2=O)c1 (centres undefined)	.	0.8	-17.5	0.738	-0.8	-8.6	6.4	0.7	i
Cc1cc(OCc2cc(C(=O)N(C)CCc3cnn(C)c3)no2)cc(C)c1Cl	.	0.7	5.0	0.653	-3.5	-4.8	-2.4	0.5	i
C[C@@H]1CCCCO[C@@H](CN(C)Cc2ccc(C(=O)O)cc2)[C@@H](C)CN([C@@H](C)CO)C(=O)c2cc(NC(=O)c3ccccc3)ccc2O1	.	.	.	.	1.5	7.9	-0.7	-1.9	i
O=C(c1cccc([N+](=O)[O-])c1)N1CCN(c2ccc(Cl)cc2)CC1	-0.3%	3.2	0.0	0.682	.	.	.	3.8	i
Cc1c(N=NC2=C(O)CC(C)(C)CC2=O)cc2c(c1[N+](=O)[O-])C(C)(C)CC2(C)C	-15.2%	2.5	-2.1	0.696	5.1	13.2	-2.3	.	i
Cc1ccc(S(=O)(=O)N2CCN(C(=O)C3COc4ccccc4O3)CC2)cc1C (centres undefined)	-2.6%	-2.6	-5.5	0.609	.	.	.	.	.
CC(=O)NC(Cc1c[nH]c2ccccc12)C(=O)NCc1ccco1 (centres undefined)	.	1.6	-5.4	0.68	7.2	16.4	1.6	-2.2	i
O=c1c(Cc2ccc(F)cc2)c(O)ccn1Cc1ccc(Cl)cc1Cl	1.2%	-1.2	-1.8	0.773	.	.	.	.	.
Cc1ccc(/C=C2/SC(=S)N(C3CCCCC3)C2=O)o1	.	33.7*	12.8	.	0.6	0.8	5.3	0.4	i
COc1cc(C(=O)Nc2ccccc2C2COC(=O)C2=N)cc(OC)c1OC (centres undefined)	32.4%	5.5	0.7	0.687	.	.	.	.	.
O=C(COc1ccc(Cl)cc1)NCc1nnc(SCC(=O)Nc2ccccc2F)o1	-2.9%	2.7	-5.9	0.708	7.5	1.7	5.3	-2.4	i
O=C(CC1CC1)Nc1ccc2c(c1)[C@H]1C[C@@H](CC(=O)N3CCc4ccccc4C3)O[C@H](CO)[C@H]1O2	.	.	.	.	-2.5	-5.6	-0.7	2.8	i
CN1c2ccc(-c3cccc(F)c3)cc2[C@@H]2[C@@H](CCN2C(=O)Cc2ccccc2)[C@@H]1CO	.	.	.	.	-21.8	-58.2	24.4	11.5	i
C=CCN(c1ccc(Br)cc1C(=O)OC)S(C)(=O)=O	.	-1.4	-4.0	0.702	3.7	9.3	-4.2	1.9	i
COc1ccc(C(C)(NC(C)=O)c2nc(-c3cncnc3)cs2)cc1 (centres undefined)	.	-1.1	.	.	18.9	25.8	-0.1	-1.5	i
O=C(O)c1ccc2c(c1)C(=O)N(c1ccc(/C=C/C(=O)c3ccccc3)cc1)C2=O	?	0.3	50.4	0.73	-10.4	-5.0	-1.0	1.9	i
O=C(CNc1ccc2ccccc2c1)N/N=C/c1cc2ccccc2nc1Cl	16.5%	1.4	-4.2	.	.	.	.	.	.
CCOc1ccc(NC(=O)CCN2CCN(S(=O)(=O)c3ccc(Cl)cc3)CC2)cc1	11.0%	2.1	1.2	0.666	-4.0	-11.4	-1.4	1.5	i
C[C@@H]1CCCCO[C@H](CN(C)Cc2ccc3c(c2)OCO3)[C@@H](C)CN([C@@H](C)CO)C(=O)c2cc(NC(=O)c3ccccc3)ccc2O1	.	.	.	.	1.0	-4.4	0.4	7.3	i
Cn1cccc1C1C=C(c2ccc(C(C)(C)C)cc2)Nc2ncnn21 (centres undefined)	.	5.1	0.9	0.659	-10.4	-13.9	-2.2	2.2	i
CCOC(=O)C1CCCN(C(=O)c2ccc(C)cc2O)C1 (centres undefined)	2.8%	3.0	4.0	0.66	.	.	.	.	.
COc1ccccc1-n1cc(C(=O)NCC(=O)N2CCN(c3ccccc3)CC2)c2ccccc2c1=O	11.4%	4.1	.	0.696	.	.	.	.	.
CCN(CC)S(=O)(=O)c1cc(NC(=O)COC(=O)c2sc3ccccc3c2Cl)ccc1C	7.1%	1.7	-8.0	0.678	-1.5	7.5	-4.3	-24.4	i
CCN1CCN(CCCNC(=O)c2ccc(NC(=O)C3=CSCCO3)cc2)CC1	.	3.7	-1.7	0.667	6.7	13.1	-1.5	-12.4	i
c1nc2sc3c(c2c2nnnn12)CCCC3	-4.2%	0.8	-2.5	0.682	.	.	.	.	.
Cc1sc2c(=O)n3c(nc2c1C(=O)NC1CCCCC1)CCCCC3	-13.3%	-1.0	11.8	0.752	.	.	.	.	.
NC(=O)N/N=C/c1cn(-c2ccccc2)nc1-c1cccs1	-2.9%	-3.5	.	.	-11.3	-4.7	-2.2	11.9	i
CCc1ccc(NC(=O)CCn2c(=O)c3cccn3c3ccccc32)cc1	.	1.6	-0.8	0.663	-4.9	-1.7	0.0	6.9	i
CN1[C@@H]2c3ccc(-c4cccc(F)c4)c(=O)n3C[C@H]1[C@H](CO)[C@H]2C(=O)Nc1nccs1	.	.	.	.	0.7	1.4	2.1	-0.8	i
COc1ccc(-c2nnc3ccc(SCC(=O)Nc4cc(C)on4)nn23)cc1OC	-36.2%	-1.9	11.9	0.7	16.9	27.0	11.6	-1.0	i
CN(C(=O)c1ccco1)c1nc(CC(=O)Nc2ccccc2)cs1	4.4%	-2.4	4.5	0.708	.	.	.	.	.
O=C(NCc1ccc(Cl)cc1)C(=O)NCC1OCCN1S(=O)(=O)c1ccc2c(c1)OCCO2 (centres undefined)	.	-3.9	-4.2	0.692	3.3	4.2	-0.7	-4.4	i
C[C@@H]1CN([C@H](C)CO)C(=O)c2cc(NC(=O)c3ccncc3)ccc2O[C@@H](C)CCCCO[C@H]1CN(C)S(=O)(=O)c1ccc(F)cc1	.	.	.	.	-0.7	-2.7	0.8	0.2	i
COC1OC2COC(c3ccccc3)OC2C(OC(C)=O)C1OC(C)=O (centres undefined)	-1.3%	-0.5	.	0.718	7.3	10.1	-2.2	0.3	i
Cn1nnnc1SCC(=O)Nc1ccc2c(c1)OCO2	.	-2.6	.	.	4.3	6.5	-1.6	-1.6	i
Cc1nc2sc(C(c3ccccc3)N3CCN(c4ccccc4F)CC3)c(O)n2n1 (centres undefined)	-1.1%	4.8	-6.3	0.688	.	.	.	.	.
COc1ccc(N2CCN(C(CNC(=O)C(=O)NC3CCCC3)c3ccco3)CC2)cc1 (centres undefined)	-5.6%	-6.6	-5.4	0.674	4.7	11.7	-2.1	2.5	i
O=C(O)/C=C/c1ccccc1Oc1ccccc1	-6.8%	-2.6	4.5	0.625	.	.	.	.	.
O=C(C[C@@H]1CC[C@H](NC(=O)Nc2cccc(F)c2)[C@@H](CO)O1)NCC1CC1	.	.	.	.	-2.1	2.3	-1.7	-1.4	i
COc1ccccc1C(=O)NCCC(=O)N1CCN(C(=O)c2ccco2)CC1	-4.1%	1.9	.	0.662	2.9	7.0	2.6	2.3	i
CC(C)(C)n1nnnc1C(c1cc2cc3c(cc2[nH]c1=O)OCO3)N1CCN(c2ccccc2)CC1 (centres undefined)	?	1.5	-13.2	0.683	.	.	.	.	.
CO[C@H]1CN(C)C(=O)c2ccc(NC(=O)c3ccc4c(c3)OCO4)cc2OC[C@@H](C)NC[C@H]1C	.	.	.	.	-0.1	-1.6	0.4	-0.7	i
CCOCCCNC(=O)C(c1ccc(OC)cc1)N(Cc1ccc2c(c1)OCO2)C(=O)c1ccccn1 (centres undefined)	0.2%	-2.2	-16.6	0.693	11.3	5.0	2.0	-0.7	i
C=CCOc1cc(C)nc(-c2ccccc2O)n1	2.7%	0.5	.	0.695	.	.	.	.	.
N#Cc1cccc(-c2ccc([C@@H]3[C@@H](CO)N4CCCCN(C(=O)Nc5ccc(F)cc5)C[C@@H]34)cc2)c1	.	.	.	.	-10.2	-33.0	21.2	-0.8	i
CCCNC(=O)c1cc(C2CCCCN2C(=O)c2cc(C(C)(C)C)nn2C)on1 (centres undefined)	.	-1.2	.	.	-1.3	9.2	6.1	-4.1	i
Cn1c(CSc2ncn[nH]2)nc2ccccc21	-1.6%	-0.2	-3.4	0.681	.	.	.	.	.
CCCNC(=O)c1c(N)n(-c2ccc3c(c2)OCO3)c2nc3ccccc3nc12	18.4%	6.6	-32.4	0.693	9.0	-2.7	0.5	.	.
C/C(=N\Nc1nc2ccc(Cl)cc2o1)c1ccccc1	3.0%	5.2	33.6	.	16.4	11.2	-2.0	0.9	i
CCOc1ccc(/C=C/[N+](=O)[O-])c2ccccc12	23.5%	1.7	-7.8	0.632	.	.	.	.	.
NC(=O)CSc1nnc(-c2ccncc2)n1-c1ccc(Cl)cc1	2.3%	-1.2	-7.1	0.686	8.1	11.7	-2.2	0.3	i
N#Cc1nc(-c2cccs2)oc1NCCCN1CCOCC1	1.9%	2.8	37.3	0.684	6.9	-6.8	3.7	6.2	i
CC1CCN(S(=O)(=O)c2cccc3cccnc23)CC1	.	-0.8	-8.3	0.672	0.9	3.2	0.3	2.6	i
O=C(COC(=O)/C=C/c1ccccc1)NC1CCCCC1	-12.0%	2.8	0.5	0.688	1.9	4.3	1.6	1.0	.
COc1cc(OC)cc(C(=O)N[C@H](C(=O)OCC(=O)N2CCN(S(=O)(=O)c3ccc(C)cc3)CC2)C(C)C)c1	.	4.6	.	0.683	-6.6	-10.5	1.0	4.8	i
CC(=O)Oc1ccc(/C=C(\NC(=O)c2ccco2)C(=O)NCc2ccccc2)cc1	.	0.1	52.0	0.718	9.6	15.0	-1.4	-4.0	i
CCCn1c(N)c(Sc2ccccc2[N+](=O)[O-])c(=O)n(CCC)c1=O	.	-2.0	.	0.663	6.7	9.9	-0.7	3.0	i
(more compounds)
SMILES	Vif TR-FRET	HNF4A DNA FP	ALR H2O2 inh	E coli growth	rRNA inh HTS	rRNA inh HTS OD600	rRNA inh HTS RFP	MLL AF4-AF9 inh	FGF22 binding
CCOC(=O)C(=CNc1ccccc1C)C(=O)OCC	5.9%	-0.6	-4.8	0.658	.	.	.	.	.
COC(=O)c1ccc(NS(=O)(=O)c2c(C)[nH]c(C)c2C(=O)N2CCCC2)cc1	.	0.1	-5.7	0.692	7.7	8.3	4.2	-5.9	i
Cc1cccc(CC(=O)N2CCOCC2)c1	.	2.2	1.7	0.676	16.8	13.2	0.9	3.3	i
Cc1cc(N)n(-c2ccc(S(=O)(=O)c3ccc(C(C)C)cc3)cc2)n1	-6.1%	2.6	-1.9	0.677	-25.9*	-20.0*	-2.3*	-2.2	i
CCN(CC)CCCNC(=O)c1ccccc1NC(=O)C1=CSCCO1	.	-5.7	2.8	0.655	5.6	5.8	-0.1	-1.5	i
Cc1c(Br)c(C(=O)NNC(=O)c2ccc(C(C)(C)C)cc2)nn1C	-1.3%	1.4	.	0.666	.	.	.	1.2	i

Source: PubChem BioAssay (several laboratories)
